Rce1 inh: yeast Rce1p protease inhibitors, primary screen, biochemical, fluorescence, cell-free homogeneous | 290,000 tested, 0.27% active | calls only | yeast membranes, quenched prenylated peptide cleavage fluorescence;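 active means fall in fluorescence gain of 50% or more versus controls, with final raw signal at or below 3038400; inconclusive means same 50% fall but final raw signal above 3038400; inactive means fall in fluorescence gain under 50%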;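 further: plate controls were neutral control wells for no effect and wells lacking membranes for full effect; tested at 10 µM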
Target sequence (Q03530 whole entry, looked up): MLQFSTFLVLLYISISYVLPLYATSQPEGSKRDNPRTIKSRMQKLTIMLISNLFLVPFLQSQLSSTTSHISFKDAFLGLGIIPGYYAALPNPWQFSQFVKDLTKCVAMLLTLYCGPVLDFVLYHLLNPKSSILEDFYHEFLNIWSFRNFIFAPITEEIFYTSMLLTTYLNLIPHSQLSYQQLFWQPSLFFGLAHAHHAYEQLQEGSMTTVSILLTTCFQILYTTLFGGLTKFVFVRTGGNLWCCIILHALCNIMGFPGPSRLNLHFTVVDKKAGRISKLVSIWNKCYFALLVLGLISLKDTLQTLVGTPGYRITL
PABP FP inh: PABP poly(A) RNA binding inhibitors, primary screen, biochemical, fluorescence polarization, uHTS; inhibition, % at 35 µM; Polyadenylate-binding protein 1 (Homo sapiens), P11940; 290,000 tested, 1% active;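 active means 50% or more with normal probe brightness, or confirmed in later tests; inconclusive means above 50% with abnormal brightness, or retests that disagree; inactive means below 50% or failed in later tests; about a fifth of its hits are not listed in these tables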;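 further: calls also rest on retests at 20 µM and on dose response follow-up; controls were probe without protein and protein plus probe with vehicle; some compounds called inactive have numbers as strong as hits; many hits fall short of the cut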
Target sequence (P11940 whole entry, looked up): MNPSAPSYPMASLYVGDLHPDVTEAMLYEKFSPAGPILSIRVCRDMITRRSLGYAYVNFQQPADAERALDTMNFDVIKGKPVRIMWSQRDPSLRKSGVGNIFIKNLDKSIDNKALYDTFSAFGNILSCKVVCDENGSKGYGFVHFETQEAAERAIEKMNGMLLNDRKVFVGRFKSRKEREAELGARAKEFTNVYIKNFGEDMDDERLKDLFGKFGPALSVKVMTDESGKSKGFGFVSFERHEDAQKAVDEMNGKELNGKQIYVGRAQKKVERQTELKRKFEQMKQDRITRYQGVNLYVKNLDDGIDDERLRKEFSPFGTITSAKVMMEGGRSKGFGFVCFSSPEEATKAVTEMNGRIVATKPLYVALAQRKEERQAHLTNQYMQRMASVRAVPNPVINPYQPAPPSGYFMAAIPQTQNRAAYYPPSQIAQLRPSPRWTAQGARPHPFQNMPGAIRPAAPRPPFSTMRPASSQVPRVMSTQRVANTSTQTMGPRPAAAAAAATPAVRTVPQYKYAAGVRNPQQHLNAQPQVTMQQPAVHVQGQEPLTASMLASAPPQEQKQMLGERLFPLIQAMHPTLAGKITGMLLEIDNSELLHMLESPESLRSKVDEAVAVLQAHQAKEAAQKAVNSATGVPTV
HIV Env fusion: inhibitors of HIV-1 Env-driven cell-cell fusion, primary screen, HeLa-JRFL effector, CEM21 target cells, luciferase. inhibition, % at 12.3 µM. AID 651610, 2012. 360,000 tested, 1.1% active;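 active means mean replicate inhibition score of at least 50 and every replicate individually at or above 50; inconclusive means only one of the two criteria met; inactive means mean below 50 and not all replicates reaching 50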;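 further: 0% = plate neutral controls and 100% = maraviroc near 300 nM; one replicate is shown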
eIF4H inh: human eIF4H binding inhibitors, primary screen, translation initiation inhibitor project, biochemical, uHTS, fluorescence polarization | Eukaryotic translation initiation factor 4H (Homo sapiens), Q15056 | 290,000 tested, 0.94% active | eIF4H fluorescence polarization binding assay | inhibition, % at 35 µM;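 active means 50% or more with normal probe brightness, or confirmed in later tests; inconclusive means above 50% with abnormal brightness, or retests that disagree; inactive means below 50% or failed in later tests; about a fifth of its hits are not listed in these tables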;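 further: calls also rest on retests at 20 µM and on dose response follow-up; 0% = protein and probe with vehicle and 100% = probe without protein; strong numbers were not always called active; many hits fall short of the cut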
Yeast UUG start: modulators of yeast start codon fidelity, primary screen, whole organism, S. cerevisiae, single point, plate reader | S. cerevisiae UUG-firefly luciferase reporter, luminescence/redox ratio | activity score, % at 18.7 µM | 350,000 tested, 0.13% active;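 active means replicate mean at a twofold rise or more, about +100% in these data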;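 further: firefly luciferase made from a UUG start codon reports start codon fidelity; reporter light over untreated wells divided by growth signal over untreated wells; some hits fall short of that in this replicate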
MT1-MMP act inh: blockers of MT1-MMP proenzyme processing, primary screen, HT1080 RFP-PRO-GFP cells, GFP/RFP fluorescence. Matrix metalloproteinase-14 (Homo sapiens), P50281. GFP/RFP ratio fluorescence, overnight; percent of plate control window, DMSO zero. GFP/RFP ratio change, % at 20 µM. 360,000 tested, 0.061% active. AID 651647, 2012;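 active means GFP/RFP ratio change of at least 30% with cell ATP level not reduced by more than half and red fluorescence within 50% of control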; further: strong numbers were not always called active
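system = RFP-PRO-GFP reporter HT1080 cells | dosing = 20 µM single dose, 1% DMSO | timing = overnight cell settling, then overnight compound exposure, 37 °C, 5% CO2 | read-out basis = GFP/RFP fluorescence ratio | controls = DMSO and RFP-L50D-GFP cell wells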
CSC inhib: cancer stem cell viability inhibitors, primary screen, luminescence; cancer stem cell-like cells viability; inhibition, % at 7.5 µM; 300,000 tested, 1.1% active; AID 2717, 2010;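 active means mean at 75% or more and at least half the replicates too; inconclusive means mean and replicates disagree; tested in HMLE shEcad cells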;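 further: 0% = median of negative and 100% = median of positive control wells; the first replicate is given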
eIF4H inh retest: second read-out of eIF4H inh, no call of its own (marks repeat the call); inhibition, %; compound at 20 µM; confirmation average;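 mean of two retest wells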
PABP FP inh retest: also measured in PABP FP inh; calls as there; inhibition, %; compound at 20 µM; confirmation repeats;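 mean of two retest wells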
MT1-MMP act inh RFP: also measured in MT1-MMP act inh; calls as there; RFP signal change, %; measured here: RFP expression control read;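 0 = vehicle wells; hits needed this value within 50% of zero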
* = called active by the depositor; i = inactive; ? = inconclusive; · = not tested or not shown; + = active, no number. Not all compounds are listed. The share of hits here may be higher or lower than overall.

SMILES	Rce1 inh	PABP FP inh	HIV Env fusion	eIF4H inh	Yeast UUG start	MT1-MMP act inh	MT1-MMP act inh RFP	CSC inhib	others
CCCCCCC(C)n1cc(C(C)=O)c(=O)n(C)c1=O (centres undefined)	i	-5	5	-8	·	5	-2	-6
Cc1cccc(NC(=O)CCc2ccc(S(=O)(=O)NC3CCCCC3)cc2)c1	i	0	·	4	-8	3	-6	-6
CC1CCN(C(=O)CSc2nnc(-c3cccs3)o2)CC1	i	11	-17	-6	-3	2	1	·
Cc1ccc(S(=O)(=O)N2CCC(C)CC2)cc1C(=O)NCCN1CCOCC1	i	-14	-33	-11	-22	3	3	-3
COc1cc2c3c(c1OC)C1(C=CC(=O)C=C1)CC3N(C(=O)c1ccccc1)CC2 (centres undefined)	i	-4	7	-14	-8	-3	5	-1
CN(Cc1ccc(OC(F)F)cc1)C(=O)c1ccc2nccnc2c1	i	4	-78	-3	-14	3	-4	-3
COc1ccccc1N(CC(=O)NCCSCc1ccccc1)S(=O)(=O)c1ccc(C)cc1	i	4	17	-4	-18	-12	-21	-1
CN(Cc1ccccc1)S(=O)(=O)c1cccs1	i	-2	·	-5	-8	2	-1	-6
COc1cc(C)nc(NS(=O)(=O)c2ccc(C)cc2)n1	i	-9	·	-1	-30	2	8	-7
Cc1ccc(S(=O)(=O)N(C)c2ccccc2C(=O)NC2CCCC2)cc1	i	-7	0	-7	·	-2	-2	-5
CN1c2ccccc2-c2nc3ccccc3n2C1c1ccncc1 (centres undefined)	+	5	40	2	-16	6	1	11
COc1ccc(OCC(=O)Nc2cc(-c3nn4c(C)nnc4s3)ccc2C)cc1	i	-2	-13	-8	-24	7	9	-10
Cc1ccccc1C(=O)N1CCC(C(=O)Nc2ccc(S(=O)(=O)N3CCOCC3)cc2)CC1	·	·	·	·	-15	-3	-3	-6
COC(=O)c1ccc(OC(=O)c2cccs2)cc1	i	4	-12	-26	·	0	0	-6
COc1ccc(OC)c(N=C2C(=O)Nc3ccccc32)c1	i	-2	-44	-3	-4	9	7	7
COc1nc(OC/C(N)=N/O)nc(N2CCOCC2)n1	i	-13	·	11	-21	-7	-1	10
COc1cc(/C=C/C(=O)O)ccc1OS(=O)(=O)c1ccc(C)cc1	i	-4	5	3	·	1	0	-8
O=C(CCS(=O)(=O)c1ccc(Cl)cc1)Nc1cccc(S(=O)(=O)N2CCCCCC2)c1	·	·	14	·	-10	5	-10	·
CC(=O)NC(Cc1cccc(C)c1)C(=O)NC1CCN(C(=O)c2ccc([N+](=O)[O-])cc2)CC1 (centres undefined)	i	1	-13	4	·	0	2	-1
O=C(NCc1ccccc1C(F)(F)F)C1CCC(=O)N(CCCc2ccccc2)C1 (centres undefined)	i	-4	·	-1	4	0	2	3
COc1ccc(C(=O)NC2CCCc3c2cnn3-c2cccc(C)c2C)o1 (centres undefined)	i	·	7	·	-19	-2	-22	15
Cc1cc(Cl)cc(Br)c1OCCNCC(C)O (centres undefined)	i	-2	·	-8	5	7	4	-9
CCN1CCN(c2nc(Nc3ccccc3F)nc(N)c2[N+](=O)[O-])CC1	i	-14	3	-4	-20	2	2	-17
COc1ccc(NS(=O)(=O)c2cccc(C(=O)OCC(=O)c3c(N)n(C)c(=O)n(C)c3=O)c2)cc1	·	·	-20	·	-6	0	-2	-15
O=C(Nc1c2c(nn1-c1cccc(Cl)c1)CS(=O)C2)c1ccc2c(c1)OCO2 (centres undefined)	i	2	·	-4	0	-4	5	-10
Other records follow.
SMILES	Rce1 inh	PABP FP inh	HIV Env fusion	eIF4H inh	Yeast UUG start	MT1-MMP act inh	MT1-MMP act inh RFP	CSC inhib	others
Cc1nn(-c2ccc(Cl)c(Cl)c2)c(C)c1C(=O)O	·	-2	-5	11	·	-1	2	-8
COc1cccc(-c2nn(-c3ccccc3)cc2C(=O)NCC(=O)O)c1	i	9	·	1	-19	-3	1	7
CC(=O)NC(CC(=O)Oc1ccc(C)cc1Br)c1ccccc1 (centres undefined)	i	10	-12	4	0	5	7	2
CC[C@@]1(C(=O)OC)N[C@H](CN(C)S(=O)(=O)c2ccccc2)[C@@H]2C(=O)N(C)C(=O)[C@@H]21	·	·	-45	·	-6	4	8	·
O=C(CN(C(=O)c1csnn1)c1ccc(Cl)cc1)NCCc1ccccc1	i	9	3	-10	-16	-4	-2	·
Cc1cccc(-n2c(O)c(C=Nc3ccccc3N)c(=O)[nH]c2=O)c1	i	10	-1	8	-18	-8	2	-9
C=CCCN(C(CC(C)C)C(=O)OC)S(=O)(=O)c1ccccc1Br (centres undefined)	i	-7	22	-3	0	3	0	-14
CCN1CCCC1CNC(=O)c1cc(OC)c(OC)c(OC)c1 (centres undefined)	i	-4	24	-9	-16	3	-1	-16
COc1ccc(Cl)cc1NC(=O)Nc1cccc([N+](=O)[O-])c1C	i	1	·	-6	-9	-1	-5	-3
O=C(C1CCCO1)N1CCN(c2ccc(F)cc2)CC1 (centres undefined)	i	-3	-39	-2	-23	5	4	-1
CCCC/C=C/c1cccc2nncn12	·	·	12	·	-42	3	5	·
COc1ccc(CCNC(=O)c2nnc(CS(=O)(=O)c3ccccc3)o2)cc1OC	i	4	-11	-4	-13	1	4	-10
Cc1ccc(NC(=O)COc2ccc(Cl)cc2Cl)cc1S(=O)(=O)N1CCOCC1	·	·	-4	·	-11	-4	-9	·
O=C(c1[nH]c(C(F)(F)F)nc1-c1ccccc1)N1CCN(c2ncccc2C(F)(F)F)CC1	·	·	-19	·	5	0	-2	·
c1ccc(-n2cc(CNCCc3cscn3)c(-c3ccc4c(c3)OCO4)n2)cc1	i	-5	19	0	6	2	-1	·
CC(=O)c1ccc(S(=O)(=O)Nc2ccc(C(=O)NCCCn3ccnc3)cc2)cc1	·	·	i	·	-20	8	-1	-34
CS(=O)(=O)N1CCC(C(=O)Nc2cc(C(F)(F)F)ccc2Cl)CC1	i	5	·	-2	-5	-6	0	-11
C#CCOC(=O)C[N+](C)(C)CC#Cc1ccccc1	i	-3	9	2	-18	-2	1	-2
COc1ccc(N2CCN(C(=O)CCC(=O)N3CCOc4ccc(Cl)cc43)CC2)cc1	i	-12	6	-14	-12	-5	-8	-11
Cc1ccc(C)c2c1cc(C)c1nnc(SCC(=O)c3cccs3)n12	i	-10	·	-5	·	-4	0	-1
COc1ccc(-c2ccc(-c3nnc(Cc4ccc(OC)c(OC)c4)o3)cc2)cc1	·	9	-2	9	-6	2	-3	-2
Cc1ccc2c(c1)N(CCC(=O)NCCCOC(C)C)C(=O)C(C)O2 (centres undefined)	i	-3	-44	-2	·	6	1	-16
Cc1cc(C(=O)N/N=C/C=C/c2ccccc2)n[nH]1	i	5	1	1	-12	-1	-1	-5
COCCCNC(=O)Cn1nnc(-c2ccc(NC(=O)c3cccnc3)cc2)n1	i	-11	·	-3	·	·	·	-11
Cc1cc(C)nc(-n2nc(C)cc2NC(=O)c2cccc(S(=O)(=O)N3CCOCC3)c2)n1	·	19	2	0	-25	0	3	·
(listing goes on)
SMILES	Rce1 inh	PABP FP inh	HIV Env fusion	eIF4H inh	Yeast UUG start	MT1-MMP act inh	MT1-MMP act inh RFP	CSC inhib	others
O=C(Cc1cn(Cc2cccc(Cl)c2)c2ccccc12)N1CCCC1	i	-3	-12	-5	4	-4	-20	5
Cc1ccc(C(C(=O)NCc2ccc(F)cc2)N(C(=O)c2csnn2)C2CC2)cc1 (centres undefined)	i	-1	6	4	-1	-2	2	-10
CCOC(=O)c1c(C)[nH]c(C(=O)Cn2c(=O)oc3ccccc32)c1C	i	-6	·	-6	-10	1	-1	-10
CCNC(=S)NNC(=O)Nc1ccccc1	i	1	·	8	·	5	1	12
COc1ccc(OC)c([N+](=O)[O-])c1C(N)=O	i	44	-13	83	·	4	6	·	eIF4H inh retest=26;PABP FP inh retest=27
COc1cccc(NC(=O)CSc2nc3c([nH]c4ccccc43)c(=O)n2C)c1	i	-5	2	-6	·	0	-3	-11
CNC(=S)N1CCn2cccc2C1c1cc(OC)c(OC)c(OC)c1 (centres undefined)	i	2	27	4	·	-3	2	-18
O=C(Nc1ccc(F)cc1F)C1CC(=O)N(Cc2ccccc2)C1 (centres undefined)	·	·	-3	·	-39	1	4	7
CSc1ccc(C(=O)C2CCCN(C(=O)c3ccc4c(c3)OCO4)C2)cc1 (centres undefined)	i	-1	5	8	35	0	0	35
CCN1CCN(c2ccc(S(=O)(=O)N3CCCCC3)cc2NC(=O)COc2ccc(Cl)c(C)c2)CC1	i	17	-11	-3	5	-2	3	-5
CCOC(=O)N1CCC(N2CCN(c3ccccc3)CC2)CC1	i	-6	-20	-19	-14	-3	1	-1
CCOC(=O)c1nnn(-c2nonc2N)c1-c1cccc2ccccc12	i	1	·	4	44	0	0	22
CN1CCN(c2ccc(S(=O)(=O)N3CCCCC3)cc2NC(=O)Cc2ccccc2F)CC1	i	-6	-5	-12	-14	-4	-6	9
CC(C)[C@H](NC(N)=O)C(=O)Nc1ccc(OCc2ccccc2)cc1	i	-4	-13	-2	·	-2	-5	16
Cc1ccc(N(CC(=O)Nc2ccc3c(c2)OCCO3)S(=O)(=O)c2c(C)noc2C)cc1	i	-4	·	-2	-13	0	-2	35
Nc1ccccc1-c1nnc(SCc2ccccc2Cl)[nH]c1=O	i	26	-6	-4	·	14	-1	-6
Cc1ccc(NC(=O)CSC2=C(C#N)C(c3ccc4c(c3)OCO4)C3=C(CCCC3=O)N2)c(C)c1 (centres undefined)	·	32	?	5	-8	-1	-8	2
CC(=O)NNC(=O)CCn1nnc2ccccc21	i	2	11	3	-25	-1	7	1
CCOC(=O)c1ccc(NS(=O)(=O)N2CCCCCC2)cc1	i	1	·	-2	-4	6	-4	14
COc1ccc(NC(C)=O)cc1NS(=O)(=O)c1cn(C)c(=O)n(C)c1=O	i	-11	0	-2	16	0	5	-3
COc1cc(CN2C[C@@H](CO)O[C@@H](n3cnc4c(NCc5ccc(F)cc5)ncnc43)C2)cc(OC)c1OC	·	·	1	·	4	8	3	·
CCOC(=O)CNc1ncnc2nc[nH]c12	i	-2	17	6	-15	1	5	5
Cc1ccc(C)c(NC(=S)NCc2cccs2)c1	i	2	-2	-4	·	6	3	-1
O=S(=O)(NCc1cccnc1)c1cc(Cl)ccc1Cl	i	6	·	-3	·	-1	6	-5
CCN(CC)C(=O)Cn1cc(C(=O)C(=O)N2CCCc3ccccc32)c2ccccc21	i	-5	-2	-10	10	1	-1	-9
CS(=O)(=O)c1ccccc1C(=O)Nc1ccc(-c2nc3ccccc3[nH]2)cc1	i	0	-29	-4	-7	1	-3	-3
COc1ccc(NC(=O)CCNC(=O)c2ccco2)cc1Cl	·	0	-5	-12	-2	4	5	-8
N#Cc1cc(-c2ccc(Cl)cc2)cnc1Sc1ccccc1	i	-5	-98	-1	3	18	-2	-5
